Screens deposited in PubChem BioAssay by Broad Institute.
Shh pathway inh = Sonic Hedgehog pathway inhibition | inhibition, % (no concentration beside the values) | Shh-LIGHT2 Gli-luciferase reporter, 30 h | 22,000 tested, 2.1% active | AID 2313;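 active = replicate mean of 65% or more; inconclusive = mean lower but half the replicates past it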;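 also: pathway switched on by Shh-conditioned medium diluted 1 in 25 in low serum; 100 nL library stock added to about 40 µL; 0% = median of neutral wells and 100% = positive control level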
PD-1 reverse act = reversal of PD-1 mediated T-cell inhibition | AID 2316 | activation, % (test concentration not listed) | primary human CD4 T cells, PD-L1 beads, CellTiter-Glo 96 h | 29,000 tested, under 10 active;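 active = replicate mean of 50% or more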;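 also: 0% = median vehicle wells and 100% = positive control; 100 nL library stock added to about 50 µL; numbers are from one replicate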
YB-1 expression = YB-1 expression inhibition; delta delta Cp (YB-1 minus CDIP) (test concentration not listed); U2OS, qRT-PCR YB-1 vs CDIP delta delta Cp, 16 h; active compounds read high; zero = DMSO, each unit about twofold; 30,000 tested, 0.37% active;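 active = delta delta Cp rounded down to an integer at or above 3, about 3 SD of DMSO wells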;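 also: higher means less YB-1 transcript or more CDIP transcript relative to DMSO; stock transfer was 100 nL into about 100 µL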
MITF inh = blocks MITF activity | TRPM1 promoter luciferase, luminescence, 24 h | inhibition, % (no concentration beside the values) | 37,000 tested, 0.28% active | AID 2240;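 active = most replicates at 85% or more, or half of them and the mean; inconclusive = half reach 85% but not the mean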;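 also: human melanocyte line stably carrying TRPM1 promoter luciferase reporter; 0% = vehicle wells and 100% = a positive control; the first replicate is given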
* marks the source's active call; other numbers are inactive results; ? = inconclusive; . = not tested or not shown. Not all compounds are listed (hit frequency here may not be typical).

Every second line gives: Shh pathway inh	PD-1 reverse act	YB-1 expression	MITF inh
[1] COC(=O)c1ccccc1NC(=O)CSc1nnc(-c2cc3cccc(OC)c3o2)n1C
→ .	-1.1	.	-3
[2] COc1ccc(S(=O)(=O)Nc2cccc3c2O[C@H](CN(C)Cc2ccc(-c4ccccc4)cc2)[C@@H](C)CN([C@H](C)CO)C3=O)cc1
→ -8	.	0.15	38
[3] COc1c(O)cc2c(c1O)C(=O)OC(C)C(O)c1c(O)c(O)c(OC)c(O)c1C(=O)OC(C)C2O (configuration not stated)
→ 17	-0.2	-0.28	-8
[4] COc1ccc(S(=O)(=O)Nc2ccc3c(c2)CC(=O)N([C@@H](C)CO)C[C@H](C)[C@@H](CN(C)C(=O)Nc2cccc4ccccc24)O3)cc1
→ .	0.7	-0.4	2
[5] COc1ccc(S(=O)(=O)N(C)C[C@H]2Oc3c(NS(=O)(=O)c4cccs4)cccc3C(=O)N([C@H](C)CO)C[C@@H]2C)cc1
→ -14	.	-0.01	6
[6] Clc1ccc2c(c1)C(N1CCNCC1)=Nc1ccccc1O2
→ 49	0.7	0.11	-1
[7] Cc1cc(C(=O)Nc2cccc3c2O[C@@H](CN(C)Cc2ccncc2)[C@H](C)CN([C@@H](C)CO)C3=O)n(C)n1
→ -83	1.4	0.3	-1
[8] C[C@H](CO)N1C[C@H](C)[C@@H](CN(C)C(=O)NC2CCCCC2)Oc2ccc(NC(=O)CCCN(C)C)cc2C1=O
→ -22	1.2	-0.016	-10
[9] Clc1ccc(-c2nnc(SCc3ccon3)o2)c(Cl)c1
→ .	0.3	.	51
[10] COc1ccc(S(=O)(=O)Nc2ccc3c(c2)CC(=O)N([C@H](C)CO)C[C@@H](C)[C@H](CN(C)C(=O)NC2CCCCC2)O3)cc1
→ -25	.	-0.16	3
[11] C[C@H](CO)N1C[C@H](C)[C@H](CN(C)Cc2ccc(Oc3ccccc3)cc2)Oc2ccc(NS(=O)(=O)c3cccs3)cc2CC1=O
→ 17	-0.8	-0.18	-4
[12] C[C@@H]1CN([C@@H](C)CO)C(=O)c2cccc(NC(=O)C3CC3)c2O[C@H]1CN(C)C(=O)Nc1cccc2ccccc12
→ 25	.	-0.15	5
[13] CCCCCCCCCC(O)C(C)C(O)C(/C=C(\C)C1=CC(=O)C(C)CO1)CO (configuration not stated)
→ 10	1.3	-0.23	9
[14] Cc1noc(C)c1NC(=O)N(C)C[C@@H]1Oc2c(NS(=O)(=O)c3ccc(Cl)cc3)cccc2C(=O)N([C@H](C)CO)C[C@@H]1C
→ -38	0.9	-0.58	-4
[15] CC(Oc1ccc(Cl)cc1Cl)C(=O)Nc1ccccc1-c1nc2ccccc2s1 (configuration not stated)
→ .	1.7	.	2
[16] O=C(O)CCc1ccc(F)cc1
→ -5	0.6	0.24	6
[17] O=C(O)CCNS(=O)(=O)c1cccc(Cl)c1
→ .	0.8	.	-16
[18] C[C@@H]1CN([C@H](C)CO)C(=O)c2cccc(NS(=O)(=O)c3ccc(F)cc3)c2O[C@H]1CN(C)S(=O)(=O)c1ccc(F)cc1
→ -18	2.3	0.17	4
[19] CCCCCCCCC#CC#C/C=C/CCCC(=O)O
→ ?	.	0.44	.
[20] O=c1[nH]c2cc(Cl)ccc2c(O)c1-c1cccc(Oc2ccccc2)c1
→ -11	0.5	0.19	10
[21] Cc1nn(C(C)C(=O)NCc2ccco2)c(C)c1[N+](=O)[O-] (configuration not stated)
→ .	-0.6	.	-17
[22] Cc1c(N(CC(=O)O)S(=O)(=O)c2ccccc2)c(=O)n(-c2ccccc2)n1C
→ .	2.7	.	-47
[23] CC(C)NC(=O)N(C)C[C@@H]1OCCCC[C@@H](C)Oc2ccc(NC(=O)Nc3ccc(C(F)(F)F)cc3)cc2C(=O)N([C@H](C)CO)C[C@@H]1C
→ 12	-1.5	0.46	1
[24] COc1cc2c(c(OC)c1OC)-c1cc3c(cc1C[C@H]1C(=O)OC[C@@H]1C2)OCO3
→ 10	-1.1	-0.023	-8
[25] COc1ccc(NC(=O)Nc2ccc3c(c2)C(=O)N([C@@H](C)CO)C[C@@H](C)[C@H](CN(C)S(=O)(=O)c2cccs2)O3)cc1
→ -20	.	0.26	-26
[26] C[C@@H]1CCCCO[C@@H](CN(C)S(=O)(=O)c2cn(C)cn2)[C@@H](C)CN([C@H](C)CO)C(=O)c2cc(NC(=O)Cc3ccccc3)ccc2O1
→ .	-0.1	-0.45	21
[27] Cc1ccc(S(=O)(=O)N(C)C[C@@H]2OCCCC[C@@H](C)Oc3ccc(N(C)C)cc3C(=O)N([C@H](C)CO)C[C@@H]2C)cc1
→ -54	-1.6	0.19	14
[28] COc1ccc(CN(C)C[C@@H]2Oc3ccc(NC(=O)CCN4CCOCC4)cc3C(=O)N([C@H](C)CO)C[C@@H]2C)cc1
→ -17	2.1	0.13	5
[29] C[C@@H]1CN([C@H](C)CO)C(=O)c2cccc(NC(=O)Nc3ccc(C(F)(F)F)cc3)c2O[C@@H]1CN(C)C(=O)Nc1ccc2c(c1)OCO2
→ -12	-3.1	0.35	10
[30] COc1ccc(NC(=O)N(C)C[C@@H]2Oc3c(NS(=O)(=O)c4ccccc4)cccc3C(=O)N([C@H](C)CO)C[C@@H]2C)cc1
→ 1	-0.2	0.011	9

Full records as entered above. Order of screens: Shh pathway inh	PD-1 reverse act	YB-1 expression	MITF inh
CC(C)NC(=O)N(C)C[C@@H]1OCCCC[C@@H](C)Oc2ccc(NC(=O)Nc3ccc(C(F)(F)F)cc3)cc2C(=O)N([C@H](C)CO)C[C@@H]1C is entered as 12	-1.5	0.46	1
C[C@@H]1CCCCO[C@@H](CN(C)S(=O)(=O)c2cn(C)cn2)[C@@H](C)CN([C@H](C)CO)C(=O)c2cc(NC(=O)Cc3ccccc3)ccc2O1 is entered as .	-0.1	-0.45	21

(cont.)
Every second line gives: Shh pathway inh	PD-1 reverse act	YB-1 expression	MITF inh
[31] C[C@H](CO)N1C[C@H](C)[C@@H](CN(C)C(=O)Nc2ccc(F)cc2)Oc2ccc(NC(=O)Cc3cn(C)c4ccccc34)cc2C1=O
→ .	-3.8	0.13	10
[32] Cc1ccc(S(=O)(=O)N(C)C[C@H]2Oc3c(NC(=O)Nc4ccc(F)cc4)cccc3C(=O)N([C@@H](C)CO)C[C@@H]2C)cc1
→ 6	1.7	0.19	-16
[33] C[C@@H]1CN([C@@H](C)CO)C(=O)c2cc(NC(=O)Nc3cccc4ccccc34)ccc2O[C@@H]1CN(C)C(=O)Nc1ccc(F)cc1
→ -10	-2.3	0.22	8
[34] CCNC(=O)Oc1ccccc1
→ -16	0.6	-0.16	-40
[35] COc1ccc(NC(=O)C(C)N(c2ccc(C)c(C)c2)S(C)(=O)=O)cc1 (configuration not stated)
→ .	4.9	.	-5
[36] C[C@@H]1CCCCO[C@@H](CN(C)S(C)(=O)=O)[C@@H](C)CN([C@H](C)CO)C(=O)c2cc(NC(=O)Nc3cccc4ccccc34)ccc2O1
→ -25	0.5	0.6	-7
[37] CNC[C@@H]1Oc2ccc(NS(=O)(=O)c3ccc(C)cc3)cc2C(=O)N([C@H](C)CO)C[C@H]1C
→ .	-0.1	-0.025	7
[38] CC(C)NC(=O)Nc1cccc2c1O[C@@H](CN(C)Cc1ccc(Cl)c(Cl)c1)[C@@H](C)CN([C@H](C)CO)C2=O
→ -16	0.4	-0.43	21
[39] Cc1ccc(S(=O)(=O)Nc2cccc3c2O[C@H](CN(C)Cc2ccc(Cl)c(Cl)c2)[C@@H](C)CN([C@H](C)CO)C3=O)cc1
→ 17	.	-0.2	20
[40] c1ccc(CCn2c3ccccc3c3nnc(SCc4ccc5nonc5c4)nc32)cc1
→ .	-4.5	.	5
[41] COc1ccc(S(=O)(=O)N(C)C[C@H]2Oc3c(NC(=O)Nc4cccc5ccccc45)cccc3C(=O)N([C@@H](C)CO)C[C@@H]2C)cc1
→ 10	1.7	-0.058	-15
[42] CNC[C@H]1Oc2ccc(N)cc2C(=O)N([C@H](C)CO)C[C@@H]1C
→ -65	.	0.016	-6
[43] Cc1noc(C)c1NC(=O)Nc1ccc2c(c1)CC(=O)N([C@@H](C)CO)C[C@H](C)[C@H](CN(C)Cc1ccc(C(=O)O)cc1)O2
→ -53	2.2	-0.25	4
[44] COc1ccc(S(=O)(=O)N(C)C[C@H]2Oc3ccc(NS(=O)(=O)c4ccc(C)cc4)cc3CC(=O)N([C@H](C)CO)C[C@H]2C)cc1
→ ?	-0.6	0.096	2
[45] Cc1ccc(S(=O)(=O)N(C)C[C@H]2Oc3c(NC(=O)Nc4ccc5c(c4)OCO5)cccc3C(=O)N([C@H](C)CO)C[C@H]2C)cc1
→ -1	-4.0	0.24	-16

Rewritten screen by screen: 3 of the compounds above
41	COc1ccc(S(=O)(=O)N(C)C[C@H]2Oc3c(NC(=O)Nc4cccc5ccccc45)cccc3C(=O)N([C@@H](C)CO)C[C@@H]2C)cc1
42	CNC[C@H]1Oc2ccc(N)cc2C(=O)N([C@H](C)CO)C[C@@H]1C
43	Cc1noc(C)c1NC(=O)Nc1ccc2c(c1)CC(=O)N([C@@H](C)CO)C[C@H](C)[C@H](CN(C)Cc1ccc(C(=O)O)cc1)O2
Screen / compound no. | 41 | 42 | 43
Shh pathway inh | 10 | -65 | -53
PD-1 reverse act | 1.7 | . | 2.2
YB-1 expression | -0.058 | 0.016 | -0.25
MITF inh | -15 | -6 | 4

Following part.
Every second line gives: Shh pathway inh	PD-1 reverse act	YB-1 expression	MITF inh
[46] Cn1c(O)c(C=Nc2cccc(Cl)c2)c2ccccc21
→ .	-1.9	0.092	7
[47] Cc1noc(C)c1S(=O)(=O)N(C)C[C@H]1Oc2c(NS(=O)(=O)c3cn(C)cn3)cccc2C(=O)N([C@H](C)CO)C[C@@H]1C
→ 16	2.1	-0.35	-4
[48] COc1ccccc1N(CC(=O)Nc1ccc(I)cc1C)S(C)(=O)=O
→ .	2.7	.	-14
[49] CC1CCCC[C@H]2C(=O)C=C[C@H](O)[C@@H]2CC(=O)O1 (some centres not stated)
→ 36	-16	1.4	41
[50] C[C@]12CC[C@@H]3c4ccc(O)cc4CC[C@H]3[C@@H]1C[C@@H](O)[C@@H]2O
→ 47	.	-0.055	-4
[51] Cc1cc(C(=O)Nc2cccc3c2O[C@@H](CN(C)Cc2ccncc2)[C@H](C)CN([C@H](C)CO)C3=O)n(C)n1
→ 2	-0.3	-0.31	-8
[52] COc1ccc(NC(=O)Nc2cccc3c2O[C@H](CN(C)S(=O)(=O)c2ccc(C)cc2)[C@@H](C)CN([C@H](C)CO)C3=O)cc1
→ -24	-4.5	-0.18	-8
[53] C[C@@H]1CN([C@H](C)CO)C(=O)Cc2cc(NC(=O)C3CC3)ccc2O[C@@H]1CN(C)C(=O)Nc1ccccc1
→ -34	-0.8	-0.071	1
[54] CCOC(=O)C1=C(Nc2ccc(OC(C)=O)cc2)C(=O)N(C(C)(C)C)C1
→ 4	-0.1	-0.45	-9
[55] Cc1ccc(OCC(=O)NCCN2CCOCC2)c(Br)c1
→ .	2.1	.	-20
[56] C[C@H]1CN([C@@H](C)CO)C(=O)c2cccc(NC(=O)C3CC3)c2O[C@H]1CN(C)S(=O)(=O)c1cccs1
→ 48	-2.0	0.087	1
[57] C[C@@H]1CN([C@H](C)CO)C(=O)Cc2cc(NS(=O)(=O)c3cn(C)cn3)ccc2O[C@H]1CN(C)Cc1ccc(C(F)(F)F)cc1
→ 9	-0.3	0.036	-9
[58] C[C@H]1CN([C@@H](C)CO)C(=O)c2cccc(NC(=O)Nc3ccc4c(c3)OCO4)c2O[C@@H]1CN(C)Cc1ccc(C(F)(F)F)cc1
→ -6	-3.4	-0.45	42
[59] Cn1c(=O)c2c(nc(NCCCO)n2C/C=C/c2ccccc2)n(C)c1=O
→ .	-1.0	.	-25
[60] CCn1c(SCC(=O)N2CCc3ccccc32)nnc1-c1ccc([N+](=O)[O-])cc1
→ .	-1.4	.	6
[61] Cc1ccc(S(=O)(=O)N(C)C[C@H]2Oc3c(NS(=O)(=O)c4cn(C)cn4)cccc3C(=O)N([C@H](C)CO)C[C@H]2C)cc1
→ 8	0.2	-2	1
[62] C=C1CC(O)C2C(=C)C(=O)OC2C2C(=C)C(OC3OC(CO)C(O)C(OC(=O)/C=C/c4ccc(O)c(O)c4)C3O)CC12 (configuration not stated)
→ -45	.	1	.
[63] COc1ccc(CN(C)C[C@@H]2Oc3ccc(NS(=O)(=O)c4cn(C)cn4)cc3C(=O)N([C@@H](C)CO)C[C@H]2C)cc1
→ -33	.	-0.4	-13
[64] Cc1coc(C)c1C(=O)CC1(O)C(=O)N(CCCC#N)c2ccccc21 (configuration not stated)
→ .	0.5	.	3
[65] COc1cccc(N(CC(=O)Nc2ccc(Br)cc2F)S(C)(=O)=O)c1
→ .	-2.0	.	-5
[66] Cc1noc(C)c1NC(=O)Nc1ccc2c(c1)C(=O)N([C@H](C)CO)C[C@H](C)[C@H](CN(C)Cc1ccc(C(F)(F)F)cc1)O2
→ -5	0.7	-0.25	14
[67] COc1cccc(C(=O)COc2ccc(NC(=O)c3ccc(Cl)c(Cl)c3)cc2)c1
→ .	1.3	.	1
[68] C[C@@H]1CCCCO[C@H](CN(C)Cc2ccc3c(c2)OCO3)[C@@H](C)CN([C@H](C)CO)C(=O)c2cc(NC(=O)Nc3ccc(F)cc3)ccc2O1
→ -4	-3.3	0.16	-1
